# Assay outcomes from PubChem BioAssay.
# VDR inhibitor – Inhibitors of the vitamin D receptor (VDR): qHTS; Vitamin D3 receptor (Homo sapiens), P11473; VDR-SRC2-3 peptide fluorescence polarization, 2 h; Potency, µM, for the others: max response, negative = inhibition, most hits filed as inhibitors; 400,000 compounds, 0.93% hits; AID 504847, 2011; active = well fitted inhibition curve with a large enough effect; inconclusive = small, poorly fitted or top-dose-only effect, or another doubt; inactive = no such curve, though single readings can be large or run the other way; note: series mostly up to about 120 µM
# Target sequence (P11473 whole entry, looked up): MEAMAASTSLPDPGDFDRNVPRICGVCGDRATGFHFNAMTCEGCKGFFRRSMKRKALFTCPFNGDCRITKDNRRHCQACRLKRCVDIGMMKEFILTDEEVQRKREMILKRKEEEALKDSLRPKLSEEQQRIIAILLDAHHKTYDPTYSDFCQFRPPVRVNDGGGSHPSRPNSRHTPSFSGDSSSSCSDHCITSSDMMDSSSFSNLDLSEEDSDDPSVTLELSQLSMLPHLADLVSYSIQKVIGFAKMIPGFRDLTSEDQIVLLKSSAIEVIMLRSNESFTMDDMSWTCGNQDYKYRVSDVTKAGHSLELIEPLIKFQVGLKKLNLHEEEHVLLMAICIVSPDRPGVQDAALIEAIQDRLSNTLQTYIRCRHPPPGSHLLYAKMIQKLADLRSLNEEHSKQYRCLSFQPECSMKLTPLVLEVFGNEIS
#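 Fluorescence polarization assay of small-molecule disruption of VDR binding to coregulator peptide SRC2-3. Compounds and controls pin-transferred, then read after 2 h incubation at ambient room temperature.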
# * hit, by the source's call; ? = inconclusive. % is set by controls: 0 for no effect and ±100 for the full control effect; potency is the fitted concentration of half-maximal effect. A portion of the library; the hit share may differ from the screen's.
SMILES,VDR inhibitor
COC(=O)N/N=C/C1=CCC2CC1C2(C)C (stereo not drawn),-20%
CCCOP(=O)(c1ccc(N(C)C)cc1)C(Nc1ccccc1)c1ccc(C)cc1 (stereo not drawn),9%
COc1ccc(N/N=C2/CCCCC2=O)cc1,4%
CCN(CC)S(=O)(=O)c1ccc2c(c1)N(CC(=O)NCCCN1CCN(c3ccc(OC)cc3)CC1)C(=O)CO2,5%
COc1cccc(CC(=O)OCC(=O)NNC(=O)c2ccc(Br)cc2)c1,6%
CCC1(CCC(C)C)SC(N)=NC1=O (stereo not drawn),-3%
Cc1noc(C)c1-c1nc(N2CCNCC2)c2ccccc2n1,-1%
CCC(=O)N1c2ccccc2CC1C(=O)NCCN1CCN(c2ccccc2F)CC1 (stereo not drawn),6%
O=c1c2c3c(sc2nc2n1N=C(c1cccs1)CS2)CCCC3,12%
O=C(Nc1ccccc1N1CCCC1)C1CCN(S(=O)(=O)c2cccc(C(F)(F)F)c2)CC1,8%
CCN(CC)C(=O)Cn1cc(C(=O)C(=O)N2CCc3ccccc32)c2ccccc21,-12%
Cc1ccc(NC(=O)c2noc3c2CC(C(C)(C)C)CC3)cc1 (stereo not drawn),-3%
O=C(N/N=C/c1ccncc1)c1nc2ccccc2c(=O)[nH]1,-13%
O=C1C=C(Nc2ccc(F)cc2)c2ccccc2C1=O,-15%
Cc1cc(NC(=O)CC2CCCC2)n(-c2nc3ccccc3[nH]2)n1,10%
COc1ccc(CCNc2ncnc3c2c(C)c(C)n3CCCN(C)C)cc1OC,6%
Cc1ccc(-c2nc(CS(=O)CC(=O)NCCN3CCCC3)c(C)o2)cc1 (stereo not drawn),9%
CCC(C)Nc1nc2c(c(=O)[nH]c(=O)n2C)n1Cc1ccc(F)cc1 (stereo not drawn),-6%
CC(=O)Cc1nsc(NC(=O)c2ccc(COc3cccc(C)c3)o2)n1,-9%
CCOC(=O)C1CCCN(Cc2cn[nH]c2-c2ccc(F)cc2F)C1 (stereo not drawn),8%
c1ccc(-c2nn3c(C4CCCCC4)nnc3s2)cc1,-4%
O=C(NCc1ccccc1)c1ccc(CS(=O)(=O)c2ccccc2)o1,4%
Cc1ccc(-n2nc3c(=O)n(CC(=O)NCCc4ccc(Cl)cc4)nc(C)c3c2C)cc1,1%
NS(=O)(=O)c1ccc(NC(=O)CN2CCCc3ccccc32)cc1,13%

# Overlap with the part before: 2 entries, then new ones.
SMILES,VDR inhibitor
Cc1ccc(-n2nc3c(=O)n(CC(=O)NCCc4ccc(Cl)cc4)nc(C)c3c2C)cc1,1%
NS(=O)(=O)c1ccc(NC(=O)CN2CCCc3ccccc32)cc1,13%
CCc1ccc(-c2nnn(CCC(=O)OC)n2)cc1,-15%
CCOC(=O)c1cnc2ccc(OC)cc2c1NCCc1ccccc1,0%
COC(=O)c1cc(COc2ccc3oc(C)c(C(=O)OC)c3c2)c(C)o1,-3%
O=c1c2ccccc2nnn1Cc1ccc(F)cc1,-12%
Cc1cccc(C)c1NC(=O)C(NC=O)c1ccccc1Cl (stereo not drawn),-21%
CCN(CC(=O)N1CCC(C)CC1)S(=O)(=O)c1ccc(C)cc1,-4%
NS(=O)(=O)c1ccc(N/N=C/c2ccc(O)cc2O)c([N+](=O)[O-])c1,7%
COCCNC(=O)/C(C#N)=C/c1cccs1,4%
CS(=O)(=O)N1CCN(C(=O)Cc2cccs2)CC1,17%
Cc1ccc(CNC(=O)Cc2coc3cc(C)cc(C)c23)cc1,13%
N#Cc1c(C(F)(F)F)cc(-c2cccs2)nc1SCc1cccnc1,5%
CC(C)Cc1nnc(NC(=O)c2ccc3c(c2)NC(=O)C(C)S3)s1 (stereo not drawn),-12%
COc1ccc(OCC(O)CNCCNc2nccc(C(F)(F)F)n2)cc1 (stereo not drawn),-8%
O=C(COc1ccc([N+](=O)[O-])cc1)Nc1cccnc1,-24%
CC(C)CC(NS(=O)(=O)c1ccc2c(c1)oc(=O)n2C)C(=O)NC1CCCc2ccccc21 (stereo not drawn),-16%
COc1ccc2[nH]c(=O)c(CN(Cc3cccs3)Cc3nnnn3C(C)(C)C)cc2c1,-11%
Cc1cccc(C)c1NC(=O)CCS(=O)(=O)c1ccc(Br)cc1,7%
O=c1[nH]c(=S)[nH]c2nc[nH]c12,-12%
O=C(/C=C/c1cc([N+](=O)[O-])ccc1OC(F)F)NCc1ccc(F)cc1,-4%
Cc1cc(/C=C(\C#N)C(=O)Nc2ccc(F)cc2)c(C)n1-c1ccc(N2CCOCC2)c([N+](=O)[O-])c1,-10%
CN=C(c1ccco1)n1c(=S)nc(-c2ccco2)n(C)c1=S,?
COc1cccc(N2CCN(C(=O)c3ccc(NC(=O)c4nsc5ccccc45)cc3)CC2)c1,4%
COc1ccc(CNC(=O)COC(=O)C(CCSC)N2C(=O)c3ccccc3C2=O)cc1 (stereo not drawn),-28%
Cc1ccc(N(C(=O)c2ccco2)C(C(=O)NC2CCCC2)c2cccnc2)cc1C (stereo not drawn),13%
O=C(CSc1ccc(F)cc1)NNC(=O)c1ccccc1Br,2%
COc1ccc(-c2nc(C)c(CCNC(=O)C(=O)Nc3c(C)cccc3C)s2)cc1OC,7%
CC(C)CC(NC(=O)C1CCCCC1)C(=O)NC(C)c1ccccc1 (stereo not drawn),-9%
COc1ccc(C2CC(C)=C(C#N)S(=O)(=O)C2C#N)cc1 (stereo not drawn),-2%
CN(CC(=O)NC(=O)NCc1ccco1)CC(=O)Nc1ccccc1Cl,7%
C=CCCCCCCCCCCCC(O)CC(O)COC(C)=O (stereo not drawn) (tested in a mixture with another compound),1%
Cc1cc(O)c(C(C)C)cc1NS(=O)(=O)c1ccccc1,17%
CCOc1ccccc1/C=N/Nc1ccccc1[N+](=O)[O-],14%
Cn1cnnc1SCc1nc(N)nc(Nc2ccccc2)n1,-15%
CCOC(=O)c1noc2ncnc(Nc3ccc(C)c(F)c3)c12,13%
Cc1ccc(COc2ccc(/C=N/NC(=O)c3ccc(CN4CCOCC4)cc3)cc2)cc1,-12%
Cc1cc2nc(-c3ccc(SCc4ccc(C(=O)O)cc4)nc3)[nH]c2cc1C,1%
CCOC(=O)CNC(=O)Nc1cc(C(=O)NCc2cccc(F)c2)ccc1N1CCCC1,0%
CN=C1S/C(=C\c2ccc(N3CCCC3)c(F)c2)C(=O)N1C,11%
COC(=O)c1ccc(-c2nc3cc(NC(C)=O)ccc3o2)cc1,-22%
COc1ccccc1NC(=O)CN1C(=O)c2ccccc2Sc2ccc(C(=O)N3CCCC3)cc21,11%
CCOC(=O)c1c(C)[nH]c(C)c1S(=O)(=O)NCC(=O)Nc1cccc(Cl)c1,11%
CCOC(=O)c1ccccc1NC(=O)CSc1nnc(COc2ccccc2)n1CC,19%
CCN1CCN(S(=O)(=O)c2cc3c(cc2Cl)NC(=O)CO3)CC1,15%
c1ccc(C2CC(c3cccs3)n3nnnc3N2)cc1 (stereo not drawn),1%
COc1ccccc1OCC(=O)Nc1ccc(NC(=O)COc2ccccc2OC)cc1,-2%
COCCNS(=O)(=O)c1ccc2c(c1)n(C)c(=O)n2C,9%
COc1ccc(C(=O)c2ccccc2)c2c(O)ccc(C(=O)c3ccccc3)c12,17%
CCOC(=O)c1c(S(=O)(=O)NCC(=O)Nc2ccc(F)cc2)c(C)n(C)c1C,18%
O=C(/C=C/c1ccc(F)cc1)NC(=S)NNC(=O)c1cnccn1,-9%
O=C1/C(=C/c2ccccn2)COc2ccccc21,?
O=C(CC1SC(=Nc2ccc(OC(F)F)cc2)N(CCN2CCOCC2)C1=O)Nc1ccccc1 (stereo not drawn),3%
CN(/N=C/c1cccnc1)c1cnn(-c2ccc(F)c(Cl)c2)c(=O)c1Cl,8%
O=Nc1c2cc(-c3ccccc3)[nH]nc-2c2ccccc12,7%
CSc1ccc(CN2CCC(n3nccc3NC(=O)C3CCOC3)CC2)cc1 (stereo not drawn),-14%
COC(=O)c1ccc(/C=N/Nc2nc3ccccc3[nH]2)cc1,-12%
Cc1ccc(S(=O)(=O)N2CCOCC2)cc1NC(=O)COC(=O)COc1ccccc1[N+](=O)[O-],10%
COc1ccc(C(=O)Nc2ccccc2C(=O)Nc2ccc(C(=O)O)cc2)cc1,-41%
CC(C)(C)C1CCC2(CC1)SCC(=O)N2c1ccccc1 (stereo not drawn),-8%
COc1ccc(OC)c(N=c2ssnc2Cl)c1,?
c1nc(NCC2(N3CCOCC3)CCCCC2)c2ccsc2n1,10%

# 3 structures from above, ordered by length of the SMILES, largest number first.
SMILES,VDR inhibitor
Cc1ccc(S(=O)(=O)N2CCOCC2)cc1NC(=O)COC(=O)COc1ccccc1[N+](=O)[O-],10%
O=Nc1c2cc(-c3ccccc3)[nH]nc-2c2ccccc12,7%
CC(C)(C)C1CCC2(CC1)SCC(=O)N2c1ccccc1 (stereo not drawn),-8%

# Following part.
SMILES,VDR inhibitor
Cc1ccc(CNC(=O)C2CCN(S(=O)(=O)c3c(C)noc3/C=C/c3cccs3)CC2)cc1,-7%
Cc1nn(-c2ccccc2)nc1CNC(=O)c1ncoc1-c1ccccc1,1%
CC12CCC(C(=O)Nc3nc4ccc(Br)cc4s3)(OC1=O)C2(C)C (stereo not drawn),-6%
CCNC(=O)NS(=O)(=O)c1cnccc1Nc1cccc(Cl)c1,-3%
O=C(COc1ccccc1)Nc1cc(NC(=O)COc2ccccc2)cc(C(=O)O)c1,?
O=C(COC(=O)c1ccccc1Br)NC1CCCCCCC1,8%
CS(=O)(=O)N1N=C(c2ccccc2)CC1c1cccs1 (stereo not drawn),9%
O=C(CCn1c(=O)c2ccccc2n(Cc2cccc([N+](=O)[O-])c2)c1=O)N1CCc2ccccc2C1,5%
Fc1ccc(NCc2n[nH]c(=S)n2Cc2ccccc2)cc1,11%
Cc1oc(-c2cccc(Cl)c2)nc1CN1CCC(C(=O)NCCc2ccc(Cl)cc2)CC1,-16%
Cc1onc(-c2c(Cl)cccc2Cl)c1C(=O)O/N=C(\C#N)c1ccccc1,-28%
Cc1ccccc1C1=N/C(=C/c2cccs2)C(=O)O1,-1%

# Some of the entries above, reformatted:
Structure | VDR inhibitor
Cc1nn(-c2ccccc2)nc1CNC(=O)c1ncoc1-c1ccccc1 | 1%
CC12CCC(C(=O)Nc3nc4ccc(Br)cc4s3)(OC1=O)C2(C)C (stereo not drawn) | -6%
CCNC(=O)NS(=O)(=O)c1cnccc1Nc1cccc(Cl)c1 | -3%
O=C(COc1ccccc1)Nc1cc(NC(=O)COc2ccccc2)cc(C(=O)O)c1 | ?
O=C(COC(=O)c1ccccc1Br)NC1CCCCCCC1 | 8%
CS(=O)(=O)N1N=C(c2ccccc2)CC1c1cccs1 (stereo not drawn) | 9%

# Carrying on.
SMILES,VDR inhibitor
O=C(O)CCC(=O)Nc1cccc(-c2nnc(-c3ccccc3)o2)c1,4%
CCN1CCN(S(=O)(=O)c2ccc(Cl)c(C(=O)N(C)Cc3cccs3)c2)CC1,2%
O=C(Nc1n[nH]c(=S)s1)c1ccco1,-23%
CCc1nc(N2CCCC(C)C2)c2oc3ccccc3c2n1 (stereo not drawn),?
CCc1ccc(NC(=O)CSc2ccc3nnc(CCNS(=O)(=O)c4ccc(OC)cc4)n3n2)cc1,13%
CCc1cccc(C)c1Nc1c(-c2ccc(SC)cc2)nc2sccn12,-19%
COC(=O)c1c(C)cc(OC(C)=O)c(C)c1OC(C)=O,13%
COc1ccc(NC(=S)NNC(=O)c2ccco2)c(OC)c1,-5%
Cc1ccc(OCC(=O)N(Cc2ccccc2)c2c(N)n(Cc3ccccc3)c(=O)[nH]c2=O)c(C)c1,-10%
Cc1cccc(C)c1NC(=O)c1c(O)c2ccccc2[nH]c1=O,2%
Cc1[nH]n(-c2ccc(Cl)cc2)c(=O)c1/C=N/n1c(C)nc2ccccc2c1=O,-4%
N#Cc1nnn(-c2cc(Cl)cc(Cl)c2)c1N,-17%
O=C(c1ccncc1)N1CCC2(CCN(Cc3cc(C(F)(F)F)cc(C(F)(F)F)c3)CC2)CC1,-25%
COc1cccc(Oc2nc3ncn(Cc4ccccc4)c3c(=O)n2C)c1,14%
CC(=O)c1c(C)[nH]c(C(=O)COC(=O)c2c(C)noc2C)c1C,0%
CCOc1cc(C(=S)N2CCOCC2)ccc1OC,-1%
COc1cccc(CNC(=O)C2CCC(CNc3c(N4CCC(C)CC4)c(=O)c3=O)CC2)c1 (stereo not drawn),2%
Cc1nn(CC(=O)NCc2ccc(OC(C)C)cc2)c(=O)c2c(C)n(-c3ccc(Cl)cc3)nc12,9%
O=C(NCc1cccc(Cl)c1)c1ccc2c(c1)OCO2,-12%
COc1ccccc1CNC(=O)c1ccc(OCc2c(C)noc2C)c(OC)c1,8%
Cc1cccc(NC(=S)NCCN2CCOCC2)c1C,-6%
Nn1c(SCC(=O)Nc2ccc(F)cc2)nnc1C1CCCCC1,-4%
Cc1ccccc1NS(=O)(=O)c1cc(C(=O)Nc2cccc([N+](=O)[O-])c2)ccc1C,-7%
O=C(COC(=O)c1ccc(O)cc1)Nc1ccc2[nH]c(=O)[nH]c2c1,-15%
Cc1ccc(Nc2nc(OC(C(F)(F)F)C(F)(F)F)nc(N3CCOCC3)n2)cc1,9%
N#CCC(=O)Nc1sc2c(c1C(N)=O)CCCC2,-23%
CCOc1ccccc1NC(=O)NCc1ccc2c(c1)OCO2,22%
